MLL AF4-AF9 inh = MLL-AF4/AF9 protein interaction inhibition | inhibition, % at 10 µM | AlphaScreen, biotin-AF4 peptide binding to FLAG-AF9 | 350,000 tested, 0.47% active | AID 651704;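 active = every replicate reaching a set inhibition limit, whatever the replicate mean, cut at about 25% in these data; inconclusive = mean inhibition reaches that limit but some replicates miss it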;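 also: 0% = plate neutral control median and 100% = total signal loss; the record names both 10 and 1 µM as test concentration; the first replicate is given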
Target sequence (P42568 whole entry, looked up): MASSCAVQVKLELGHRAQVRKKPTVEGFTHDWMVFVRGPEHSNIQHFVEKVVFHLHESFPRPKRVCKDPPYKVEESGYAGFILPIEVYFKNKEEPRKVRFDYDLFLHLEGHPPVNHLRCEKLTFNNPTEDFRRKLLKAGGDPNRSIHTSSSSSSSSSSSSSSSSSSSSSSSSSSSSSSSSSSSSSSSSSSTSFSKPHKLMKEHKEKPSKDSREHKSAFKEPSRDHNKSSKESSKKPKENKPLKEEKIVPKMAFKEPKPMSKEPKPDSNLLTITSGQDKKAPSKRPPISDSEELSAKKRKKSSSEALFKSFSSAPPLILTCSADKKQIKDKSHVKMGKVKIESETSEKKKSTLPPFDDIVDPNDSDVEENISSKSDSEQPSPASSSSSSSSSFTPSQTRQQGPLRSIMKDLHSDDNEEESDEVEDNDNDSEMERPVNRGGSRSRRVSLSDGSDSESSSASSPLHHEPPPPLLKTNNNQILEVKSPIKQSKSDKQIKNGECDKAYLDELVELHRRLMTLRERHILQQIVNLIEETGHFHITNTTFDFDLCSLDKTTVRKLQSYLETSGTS
UCH37 inh = blocks the human deubiquitinase UCH37; Q9Y5K5; AID 588478; purified proteasome/UCH37, Ub-AMC cleavage fluorescence; 330,000 tested, 0.33% active; inhibition, % (no concentration beside the values);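 active = mean of two replicates above 20%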;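 also: 0% = compound-free wells with enzyme and 100% = wells lacking proteasome; stock transfer was 100 nL into about 20 µL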
Target sequence (Q9Y5K5 whole entry, looked up): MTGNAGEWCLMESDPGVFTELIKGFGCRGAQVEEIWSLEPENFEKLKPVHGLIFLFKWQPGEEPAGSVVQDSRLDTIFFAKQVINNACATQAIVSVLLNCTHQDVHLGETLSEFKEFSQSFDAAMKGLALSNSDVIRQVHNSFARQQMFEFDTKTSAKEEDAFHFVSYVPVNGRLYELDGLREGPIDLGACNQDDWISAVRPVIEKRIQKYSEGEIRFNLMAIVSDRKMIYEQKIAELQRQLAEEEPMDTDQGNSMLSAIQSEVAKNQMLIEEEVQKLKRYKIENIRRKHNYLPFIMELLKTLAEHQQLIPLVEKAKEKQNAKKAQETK
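system = Proteasome-associated human UCH37 deubiquitinase | amount = 0.15 nM proteasome as dispensed | medium = pH 7.4 Tris-HCl (50 mM) with ovalbumin, ATP-MgCl2, DTT | incubation = 30 min preincubation with enzyme, 25 min cleavage at room temperature | detection = AMC fluorescence 355/460 nm | read-out basis = percent inhibition | controls = no-proteasome and no-compound wells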
HNF4A DNA FP = change in binding of human HNF4 alpha to DNA; 360,000 tested, 0.3% active; HNF4a-FITC DNA binding, fluorescence polarization, 1 h; P41235; AID 1224865; activity change, % at 10 µM; in the data active = activity change above about 30%, passing the limit was not always enough;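 also: controls were the assay level and a saturating level of protein; the project sought stronger binding though the title names inhibitors; some compounds called inactive have numbers as strong as hits; positive values seem to mean higher polarization but the record does not say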
Vif A3G = inhibitors of Vif binding to APOBEC3G peptide, primary screen, biochemical, TR-FRET, GST-Vif 1-94, biotin-A3G peptide, dose response retest (AID 1117319) | 260,000 tested, 0.57% active | TR-FRET GST-Vif / biotin-A3G peptide binding; higher % means a stronger effect; test concentration not given here; strong numbers were not always called active | inhibition, %, or IC50 in µM where a hit was titrated;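 active = above the screen mean plus three standard deviations and confirmed in dose response; inconclusive = results disagree or hit not tested in dose response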;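 also: Vif residues 1-94 fused to GST binding biotinylated APOBEC3G peptide 110-148; 0% = full assay without inhibitor and 100% = GST in place of GST-Vif; retest series ran down from 100 µM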
RanGTP-Imp inh = disruptors of Ran-importin-beta complex formation – biochemical, FRET, CFP-Ran, YFP-importin-beta, homogeneous, primary screen; cell-free CFP-Ran/YFP-importin-beta FRET ratio; inhibition, % (no concentration beside the values); 300,000 tested, 1.1% active; AID 2216;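 active = most replicates above 15%; inconclusive = exactly half above 15%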;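 also: 0% = DMSO wells and 100% = Ran loaded with GDP instead of GTP; wells of about 40 µL received 100 nL stock; the first replicate is given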
Ecoli growth = blocks Escherichia coli growth; OD600 absorbance (concentration not given with the values); OD600, 23 h; hits give low values; 330,000 tested, 0.21% active; AID 1053175;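 active = OD600 absorbance below the run mean of sample wells minus 3.6 SD, in any replicate, cut at about 0.56 in these data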;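 also: stock transfer was 300 nL into about 60 µL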
FGF22 binding = FGF22 (human) thermal shift binding. Q9HCT0. recombinant FGF22 thermal shift, SYPRO orange fluorescence; percent of sucrose octasulfate shift, DMSO zero. calls only at 9.99 µM. 340,000 tested, 1.5% active. AID 651658;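 active = melting point raised past a set limit in the mean and every replicate; inconclusive = no clear call; three in four hits are not shown here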
Target sequence (Q9HCT0 whole entry, looked up): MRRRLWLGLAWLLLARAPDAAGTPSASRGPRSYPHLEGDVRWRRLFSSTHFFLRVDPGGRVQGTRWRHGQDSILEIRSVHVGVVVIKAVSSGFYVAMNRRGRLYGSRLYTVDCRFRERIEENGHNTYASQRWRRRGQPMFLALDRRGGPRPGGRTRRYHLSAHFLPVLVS
Starred values were filed as active, the others as inactive; i = inactive; ? = inconclusive; / = no result given; & = joins results of further samples. The list is partial; count on the stated rates, not on these rows.

SMILES	MLL AF4-AF9 inh	UCH37 inh	HNF4A DNA FP	Vif A3G	RanGTP-Imp inh	Ecoli growth	FGF22 binding
Cc1ccc(N(CC(=O)N/N=C/c2cccs2)S(C)(=O)=O)cc1	-0.2	/	7.0	-7%	0.7	/	i
O=C1CS(=O)(=O)N(Cc2ccccc2F)c2ccc(Br)cc21	0.9	-0.2	1.4	2%	/	0.69	i
O=C(O)c1ccccc1SC1CC(=O)N(c2ccc3c(c2)OCO3)C1=O (stereo not drawn)	1.8	1.2	-1.9	-4%	4.3	0.73	i
CCOC(=O)C1(CCc2ccccc2)CCN(Cc2nccn2CC)CC1	1.9	1.9	3.8	13%	4.0	0.69	i
CCc1cc(-c2nnc(SCC(=O)NC3CC3)n2C)cs1	-1.6	/	3.8	/	-3.8	/	i
O=C(CCn1cccc1)Nc1cccc(F)c1	/	2.1	-1.2	0%	1.0	0.68	/
O=C(CCc1ccccc1)NC(=S)Nc1ccccc1Br	-3.3	6.0	-3.5	-6%	?	0.67	i
Cc1ccc(C(=O)OCC(=O)NCc2ccc3c(c2)OCO3)o1	-0.4	-0.4	9.2	-10%	/	0.7	i
Cc1ccc(-n2c(C)cc(C(=O)OCC(=O)N(C)C3CCS(=O)(=O)C3)c2C)cc1 (stereo not drawn)	/	2.0	-1.4	0%&-1%	2.8	0.68	/
Cc1cc(NC2CCCCC2)nc2ccccc12	0.0	-12	-0.2	/	-0.5	0.63	i
Cc1ccc(NC(=O)c2cc(N3C(=O)C=CC3=O)ccc2Cl)cc1C	/	1.2	0.8	?	-5.7	0.63	/
COc1ccc(OC)c(C(c2nnnn2Cc2ccccc2)N2CCN(C3CCCCC3)CC2)c1 (stereo not drawn)	/	7.6	1.4	-3%&6%	-0.4	0.81	/
C[C@H](NC(=O)C1CC(=O)N(c2ccc3c(c2)OCCO3)C1)C(=O)NC1CCCC1 (stereo partly drawn)	-0.7	-1.4	0.0	-6%	0.8	0.66	i
COc1cc(C)c(C)cc1S(=O)(=O)NC1CC(C)(C)NC(C)(C)C1	0.4	/	3.9	?	-0.1	/	i
COCCn1nnnc1CN(Cc1ccco1)Cc1cc2cc3c(cc2[nH]c1=O)OCO3	/	-163	-6.9	6%	0.7	0.65	/
COc1ccc2c(c1)CC/C2=N\OC(=O)c1cccc(C)c1	/	/	0.3	-5%	2.1	/	/
Cc1c(C)c2c(C)[nH]nc2oc1=O	/	-2.5	-1.5	3%	-2.8	0.67	/
O=C(Nc1cccc(O)c1)c1ccc(Br)c(S(=O)(=O)N2CCCCC2)c1	2.3	1.3	5.2	4%	1.7	0.74	i
Cc1cccc(OCCn2c(NC(=O)c3ccco3)nc3ccccc32)c1	/	-11	-1.2	-4%	-4.1	0.7	/
O=C1NC2(CCCCCC2)C(=O)N1Cc1ccccc1Br	-1.1	3.3	3.1	-19%	2.6	0.66	i
Cc1cc(/C=N/NC(=O)C(=O)NCc2ccccn2)c(C)n1-c1cccc(Br)c1	0.6	/	0.5	3%	/	/	i
COc1ccccc1NC(=S)Nc1ccc2cn[nH]c2c1	2.1	4.6	-3.2	8%	-2.6	0.73	i
CC[C@H](C)Cc1cn([C@@H](CCCCN)C(=O)NCCCCCCCCCCC(=O)N2CCNCC2)nn1	?	2.5	1.0	/	-0.5	/	i
CO/N=C(\N)c1nonc1N	-1.7	3.2	3.5	11%	1.6	0.7	i
Cc1cccc(NC(=O)CNC(=O)CCNC(=O)c2ccc(C(C)(C)C)cc2)c1C	-1.8	0.4	-0.9	-3%	/	0.68	i
COc1cc(/C=N\Nc2nc(-c3ccc(C)cc3)c(NC(C)=O)s2)ccc1O	0.5	/	-1.9	16%	-1.1	/	i
CC(C)(C)C(=O)CSc1ncnc2c1cnn2-c1ccccc1	-1.0	0.3	-1.4	16%	5.3	0.64	i
O=C(NNC(=O)c1ccccc1F)c1cccc(S(=O)(=O)N2CCc3ccccc32)c1	1.5	0.6	1.2	/	/	0.69	i
CC(=O)c1cccc(NC(=O)c2nc(-c3ccccc3)oc2C)c1	-2.3	2.5	6.4	12%	1.4	0.68	i
CS(=O)(=O)N1CCCC(C(=O)NCc2ccc(F)cc2)C1 (stereo not drawn)	/	0.0	-1.9	0%	-1.5	0.63	/
CCc1nc(N)nc(N)c1-c1ccc(Cl)c([N+](=O)[O-])c1	0.3	/	-1.9	5%	/	/	i
C=C(C)c1cccc(C(C)(C)NC(=O)N2CCN(c3ccccn3)CC2)c1	1.0	3.1	1.1	2%	-3.2	0.76	i
O=C(CN1CCC(Cc2ccccc2)CC1)Nc1ccc2c(c1)OCCO2	/	1.6	/	4%	5.3	0.69	/
O=C1[C@@H]2Cc3c([nH]c4ccccc34)C(c3ccc(Cl)cc3)N2C(=O)CN1CCO (stereo partly drawn)	6.5	0.8	-4.1	1%	-2.9	0.66	i
Cc1cc(C)n2nc(SCC(=O)NC3CCCCC3)nc2n1	-3.7	0.8	2.2	/	1.3	0.71	i
COc1ccc(C(=O)NC(=S)N(C)C2CCCCC2)cc1	2.5	3.2	1.0	/	/	0.69	i

Profiles, quoted from the list. Screens in order: MLL AF4-AF9 inh, UCH37 inh, HNF4A DNA FP, Vif A3G, RanGTP-Imp inh, Ecoli growth, FGF22 binding
Cc1cccc(NC(=O)CNC(=O)CCNC(=O)c2ccc(C(C)(C)C)cc2)c1C as listed: -1.8, 0.4, -0.9, -3%, /, 0.68, i
Cc1cc(C)n2nc(SCC(=O)NC3CCCCC3)nc2n1 as listed: -3.7, 0.8, 2.2, /, 1.3, 0.71, i
CS(=O)(=O)N1CCCC(C(=O)NCc2ccc(F)cc2)C1 (stereo not drawn) as listed: /, 0.0, -1.9, 0%, -1.5, 0.63, /
CC(C)(C)C(=O)CSc1ncnc2c1cnn2-c1ccccc1 as listed: -1.0, 0.3, -1.4, 16%, 5.3, 0.64, i
C=C(C)c1cccc(C(C)(C)NC(=O)N2CCN(c3ccccn3)CC2)c1 as listed: 1.0, 3.1, 1.1, 2%, -3.2, 0.76, i

Additional compounds:
SMILES	MLL AF4-AF9 inh	UCH37 inh	HNF4A DNA FP	Vif A3G	RanGTP-Imp inh	Ecoli growth	FGF22 binding
CN(CCC#N)C(=O)CC(Cc1ccccc1)C1CCOC(C)(C)C1 (stereo not drawn)	-1.4	0.4	-2.2	28%	0.9	0.69	i
Cc1ccc(S(=O)(=O)N2CCN(c3c([N+](=O)[O-])cc(C(F)(F)F)cc3[N+](=O)[O-])CC2)cc1	7.5	5.6	-0.6	5%	0.3	0.74	i
Cc1ccc(S(=O)(=O)NCCC(=O)N2CCN(c3cccc(Cl)c3)CC2)cc1C	-1.2	1.0	2.2	/	2.5	0.7	i
Cc1ccc(-c2nnn(CC(=O)N(c3ccccc3)C(C(=O)NCC3CCCO3)c3ccc(Cl)cc3)n2)cc1 (stereo not drawn)	/	0.3	-3.7	2%	21*	0.71	/
NC(=O)COC(=O)c1ccc(NS(=O)(=O)c2ccc3c(c2)OCCO3)cc1	5.5	0.7	1.8	0%	4.6	0.67	i
COc1ccc(N2C(=O)C(CN3CCCCC3)C2c2ccccc2)cc1 (stereo not drawn)	2.7	4.1	3.7	-6%	-3.9	0.7	i
Cc1ccc(C(=O)NC(C)C2CC3CCC2C3)c(C)c1 (stereo not drawn)	-2.0	5.4	2.0	4%	3.7	0.7	i
Cc1ccc(S(=O)(=O)N(C)Cc2ccc(C(=O)NN=C3C4CC5CC(C4)CC3C5)cc2)cc1	0.5	1.9	5.2	7%	1.9	0.59	i
N=C(N)SCc1ncccc1O	-7.3	2.6	-8.3	24%	?	0.69	i
CCN(CC)C(=O)CCNS(=O)(=O)c1ccc(C)cc1	/	0.0	-0.4	>100µM*	1.8	0.67	/
O=C(NCc1ccc(F)cc1Cl)C1CCN(S(=O)(=O)N2CCC3(CC2)OCCO3)CC1	/	-3.0	2.2	20%&-2%	-1.6	0.72	/
c1ccc(Cn2ncc3c(N4CCN(C(c5ccccc5)c5ccccc5)CC4)ncnc32)cc1	-3.5	3.9	-4.1	/	?	0.67	i
CCOC(=O)c1c(NC(=O)CSc2cn(CC)c3ccccc23)sc2c1CCC2	2.7	2.8	15	-15%	4.0	0.77	i
Cc1cc(C)cc(N(C(C)C(=O)NCCC2=CCCCC2)S(C)(=O)=O)c1 (stereo not drawn)	9.2	14	3.3	1%	-3.2	0.69	i
COc1cccc(CC(Cc2nc3ccccc3[nH]2)c2nc3ccccc3[nH]2)c1 (stereo not drawn)	1.8	-1.3	-5.5	10%	0.5	0.68	i
C=CCN(CC(O)c1cccc([N+](=O)[O-])c1)C(C)CCc1ccccc1 (stereo not drawn)	-61	2.6	1.0	-12%	5.4	0.62	i
CC1(Oc2ccccc2)CCN(Cc2ccc(-c3ccccn3)cc2)C1 (stereo not drawn)	-1.3	/	-1.9	/	/	/	i
Cn1c(N2CCOCC2)c(/C=N/O)c2ccccc21	/	/	-6.1	6%	2.0	/	/
NNC(=O)CC(=O)NC1(Cc2ccc(O)cc2)CCCCC1	-0.9	2.4	-0.1	?	1.5	0.69	i
C[C@H](CO)N1C[C@H](C)[C@@H](CN(C)C(=O)NC2CCCCC2)Oc2c(NC(=O)CCC(F)(F)F)cccc2C1=O	-0.7	2.0	-0.8	3%	/	0.72	i
CC(=O)Nc1cccc(-c2ccnc3c2CC(C(=O)NCc2cccc(Cl)c2)O3)c1 (stereo not drawn)	4.7	/	0.4	/	/	/	i
O=C(NCc1ccc(Cl)cc1)[C@@H]1CCCN1S(=O)(=O)c1ccc(Cl)cc1	0.1	1.4	-0.1	-3%	/	0.69	i
O=C(COC(=O)Cc1cccc(C(F)(F)F)c1)Nc1ccc2c(c1)OCCO2	0.2	/	1.8	/	-1.1	/	i
Brc1ccc(-c2ccc(CNCc3ccccn3)o2)cc1	11	3.1	-2.2	-20%	-1.6	0.61	i
COc1ccc(NC(=O)Nc2nnc([C@H]3C[C@H](O)[C@@H](CO)O3)s2)cc1	-5.0	/	1.3	/	/	/	i
O=C1C=C(Nc2ccccc2O)c2ccccc2C1=O	16	81*	-0.3	30%	-3.8	0.48*	i
Clc1nc(-c2ccccc2)c2ccccc2n1	-4.2	-3.6	2.3	/	-2.1	0.7	i
COc1ccc(CC(=O)NCc2cccs2)cc1	/	1.9	0.1	-4%	1.1	0.72	/
CCOC(=O)c1ccc(NC(=O)CSc2nnc(CCc3ccc(C)o3)n2-c2ccccc2)cc1	/	-0.8	-5.0	-1%	-2.4	0.77	/
CCN1C(=O)c2cccc3c(NC(=O)c4ccccc4)ccc1c23	/	0.2	1.5	-3%	-5.3	0.7	/
Cc1ccc(S(=O)(=O)N2CCCC(C(=O)NCCc3ccccc3)C2)cc1 (stereo not drawn)	1.1	0.7	-4.0	1%	1.8	0.64	i
O=C(NCc1ccco1)C1CCN(C(=O)Cc2ccccc2)CC1	/	0.5	-2.0	3%	-4.0	0.76	/
Cc1nn(-c2ccc(N3CCCCC3)nn2)c(C)c1CCC(=O)Nc1ccc(F)cc1	-1.8	-0.6	2.7	14%	1.7	0.7	i
Cc1ccccc1OCC(=O)OCC(=O)c1cc(C)n(C2CC2)c1C	-1.2	3.9	1.6	8%	/	0.68	i
CCOC(=O)C1=C(N)OC2=C(C(=O)CC(C)(C)C2)C1c1cccnc1 (stereo not drawn)	/	3.5	-2.8	18%	-0.1	0.67	/
CCC1C/C(=C\c2cc(OC)c(OC)cc2OC)C(=O)/C(=C/c2cc(OC)c(OC)cc2OC)C1 (stereo not drawn)	/	-0.7	71*	/	-70	0.68	/
Cc1nc(N2CCN(c3ccccn3)CC2)c2c(C)c(C(=O)Nc3ccc(F)cc3F)sc2n1	5.4	-3.7	0.4	-6%	-2.2	0.71	i

Screening data: PubChem BioAssay, several laboratories
